Compound activity (PubChem)
miR-21 reporter: qHTS Assay for Modulators of miRNAs and/orActivators of miR-21 | HeLa miR-21 FLuc reporter, luciferase, 48 h | Potency, µM (highest dose often 38.3 µM), inactives show at the highest dose reporter change, positive = more light | 340,000 tested, under 10 active | AID 2288, 2010; active = well fitted rising curve with a large enough effect; inconclusive = small, poorly fitted or top-dose-only effect; inactive = no such curve, though single readings can be large or run the other way;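 note: % of control where 0% means no effect; miR-21 action dims this reporter so a rising signal means less miR-21 action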
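HeLa cells endogenously expressing miR-21, stably carrying CMV-driven firefly luciferase with a downstream miR-21 binding site, 2000 cells/well. Titrations up to approximately 40 uM, 48 hours; luciferase luminescence read.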
Rango dissoc inh: qHTS Assay for Inhibitors of RanGTP induced Rango (Ran-regulated importin-beta cargo) - Importin beta complex dissociation; Biochemical FRET Rango-importin beta, RanGTP-induced dissociation; Snurportin-1 (Homo sapiens) + GTP-binding nuclear protein Ran (Homo sapiens) + Importin …; Potency, µM (highest dose often 46.1 µM), without a hit: at the highest dose activity change, negative = inhibition; 340,000 tested, 0.071% active; AID 540253, 2011; active means falling FRET ratio curve, often poorly fitted, with flat reads before Ran was added; inconclusive means other falling curves, or compound fluorescence or quenching; inactive means flat or rising ratio curve;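 note: potency is the fitted concentration of half-maximal effect; % of control where 0% means no effect; nearly all actives have a fitted effect of over 45% in size; -100% = wells without RanGTP and RCC1; the record marks most hits as doubtful in a second field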
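Recombinant Rango FRET biosensor (EYFP–snurportin 1 IBB–cerulean CFP10) at 0.1 uM premixed with 0.25 uM importin beta in PBS, 1 mM DTT, 0.02% Tween-20, 0.1% BSA. Compound added 5 min; RanGTP-RCC1 (0.6 uM Ran, 2 mM GTP, 0.2 uM RCC1) then triggers release, read at 45 min.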
Rango complex inh: qHTS Assay for Inhibitors of Rango (Ran-regulated importin-beta cargo) - Importin beta complex formation; 340,000 tested, 0.031% active; Potency, µM (titrated, usually from 92.2 µM), without a hit: top-dose inhibition of complex formation; Importin subunit beta-1 (Homo sapiens), Q14974; AID 540263, 2011; Rango CFP/YFP FRET sensor + importin beta, 45 min; active = rising FRET ratio curve, often small or poorly fitted; inconclusive = mostly compound fluorescence or quenching in the first reads; inactive = flat curves in all reads;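 note: potency is the fitted concentration of half-maximal effect; 0% = DMSO wells and 100% = buffer wells lacking importin beta; nearly all actives have a fitted effect of over 15% in size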
Target sequence (Q14974 whole entry, looked up): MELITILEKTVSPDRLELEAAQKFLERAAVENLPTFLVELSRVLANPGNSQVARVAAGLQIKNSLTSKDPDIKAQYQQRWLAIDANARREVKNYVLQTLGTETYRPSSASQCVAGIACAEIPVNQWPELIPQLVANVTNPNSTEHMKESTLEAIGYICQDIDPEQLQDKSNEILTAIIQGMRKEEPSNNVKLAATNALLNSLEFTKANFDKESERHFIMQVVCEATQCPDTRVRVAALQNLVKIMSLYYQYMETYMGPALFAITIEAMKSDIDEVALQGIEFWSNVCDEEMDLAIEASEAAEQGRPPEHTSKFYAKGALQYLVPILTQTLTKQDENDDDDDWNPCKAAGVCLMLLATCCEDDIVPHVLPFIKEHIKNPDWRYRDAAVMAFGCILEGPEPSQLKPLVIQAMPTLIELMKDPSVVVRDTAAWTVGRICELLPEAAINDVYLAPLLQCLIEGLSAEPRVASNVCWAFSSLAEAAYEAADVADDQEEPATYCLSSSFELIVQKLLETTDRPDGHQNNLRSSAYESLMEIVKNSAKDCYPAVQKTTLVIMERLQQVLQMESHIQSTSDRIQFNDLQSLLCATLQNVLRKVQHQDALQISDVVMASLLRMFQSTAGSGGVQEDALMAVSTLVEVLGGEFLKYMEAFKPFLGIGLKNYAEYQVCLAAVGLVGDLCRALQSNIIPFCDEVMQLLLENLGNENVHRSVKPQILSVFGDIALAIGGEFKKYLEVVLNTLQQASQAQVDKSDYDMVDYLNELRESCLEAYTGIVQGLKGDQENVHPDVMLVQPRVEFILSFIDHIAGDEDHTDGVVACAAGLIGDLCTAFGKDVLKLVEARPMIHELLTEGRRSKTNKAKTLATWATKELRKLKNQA
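Inhibition scored from the CFP 486 nm/YFP 530 nm FRET ratio 45 min after adding 0.125 microM importin beta to 50 nM Rango biosensor preincubated 5 min with compound (room temperature, PBS with DTT, Tween-20, BSA). No-importin wells as positive control.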
GLA inh pH 4.5: qHTS Assay for Inhibitors of Human alpha-Galactosidase at pH 4.5; purified enzyme, 4-MU-alpha-Gal fluorescence, pH 4.5; activity change, negative = inhibition, % at 105 µM; 230,000 tested, under 10 active; AID 1467, 2008; Alpha-galactosidase A (Homo sapiens), P06280; inconclusive = small, poorly fitted or top-dose-only inhibition, or a rising curve; inactive = flat fitted curve, though single readings scatter; no compound was filed as active;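 note: 0% = full activity with enzyme and -100% = basal without enzyme; dose as in the result columns while the protocol names 77 µM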
Starred values were filed as active, the others as inactive; ? = inconclusive; / = no result given.

SMILES	miR-21 reporter	Rango dissoc inh	Rango complex inh	GLA inh pH 4.5
CCOc1ccc(S(=O)(=O)N2CCC(C(=O)NC3CC3)CC2)cc1Cl	1%	2%	0.1%	/
O=C1CN(C(=O)COC(=O)c2ccc(C(F)(F)F)cc2)c2ccccc2N1	/	13%	-1.0%	/
O=C(NCc1cccs1)c1cnc(Cl)c(Cl)c1	0%	-1%	-17%	2
O=C(Nc1ccccc1N1CCCCC1)C1CCN(S(=O)(=O)c2cccc(C(F)(F)F)c2)CC1	/	12%	-1.6%	/
O=C(Cn1ncc(Cl)c(Cl)c1=O)NC1CCCCC1	/	-1%	-2.6%	/
Cc1cc(C(=O)Nc2ccccc2Cc2ccccc2)no1	-2%	-5%	-2.9%	/
COc1cc(/C=C(/NC(C)=O)C(=O)O)cc(Cl)c1OCc1ccc(Br)cc1	-1%	5%	0.5%	-5
Nc1ccc(C2(c3ccc(N)cc3)c3ccccc3C(=O)c3ccccc32)cc1	/	-14%	-2.0%	/
C/C(Cl)=C\C[N+](C)(C)CC(=O)OCCc1ccccc1	-8%	3%	-5.5%	-1
CN(CC(=O)Nc1cccc(F)c1)C(=O)c1ccc(-c2ccc(Cl)cc2)o1	-9%	-4%	-3.1%	/
COC(=O)c1cccnc1-n1c(=O)c2cccnc2n(Cc2ccc(Cl)cc2)c1=O	-11%	-13%	-3.3%	-8
COc1ccc(NC(=O)c2ccccc2-c2ccccc2)c(C)c1	-1%	11%	0.4%	7
O=C(c1ccc(Cl)cc1)c1ccc(OCC(O)CN2CCOCC2)cc1 (stereo not given)	-7%	-9%	-1.4%	-9
CCN1C(=O)CSc2ccc(C(=O)NCc3ccccc3)cc21	7%	-2%	5.0%	/
C/C(=N/NC(=O)c1cccc(Br)c1)C1CC2CCC1C2 (stereo not given)	-24%	-16%	1.9%	/
COc1ccc(NC(=O)Cc2ccc(C)c(C)c2)cc1Cl	-2%	0%	0.7%	4
O=C(NNC(=O)c1cc(-c2ccccc2Cl)nc2ccccc12)c1csc(N2CCOCC2)n1	/	-16%	1.0%	/
CC(C)CC(=O)C1CCCN(C(=O)c2ccc3oc(Cc4ccccc4)nc3c2)C1 (stereo not given)	12%	9%	1.1%	/
CC1(CC(=O)Nc2ccccc2)NC(=S)N(c2ccccc2)N1 (stereo not given)	-39%	-6%	?	/
COc1ccc(NC(=O)CSc2cn[nH]n2)c(OC)c1	7%	11%	1.2%	/
C=CCNc1nc(C(=O)OCC(=O)c2ccc(Cl)cc2)cs1	/	-2%	3.4%	/
CCn1c(CSc2nc3ccccc3s2)nnc1SCC(N)=O	-4%	-9%	0.4%	8
CCN(CC)C(=S)NC(=O)c1cccnc1	-1%	-11%	-9.1%	3
CC1CC(C)(C)NC(=S)N1CC(=O)NCc1ccc(Cl)cc1 (stereo not given)	-6%	-29%	-0.6%	2
O=C(Cc1cccs1)Nc1ccc(S(=O)(=O)N2CCCCC2)cc1	-4%	41%	-3.4%	-13
Cc1ccc(CNC(=O)C2CC(c3ccccc3C(F)(F)F)=NO2)cc1 (stereo not given)	1%	0%	1.0%	-5
COc1ccc(C2CC(c3ccc(Cl)cc3Cl)Nc3nc(N)nn32)cc1 (stereo not given)	-3%	7%	1.4%	-7
CN(Cc1ccccc1)C(=O)COC(=O)c1cc2ccccc2oc1=O	/	0%	-2.6%	/
c1ccc(CN2CCN(CCCNc3ccc4nnc(-c5ccccc5)n4n3)CC2)cc1	0%	-12%	0.3%	10
CC(=O)c1ccc(NC(=O)/C=C/c2ccc(C)cc2)cc1	-33%	11%	-0.9%	0
COc1ccc(CCNC(=O)C(=O)NCc2ccccn2)cc1	-3%	28%	2.1%	7
O=C(Nc1cccc(OCC(=O)N2CCOCC2)c1)c1cccc(Cl)c1	-3%	21%	1.4%	/
CNc1ccc(Oc2nc([N+](=O)[O-])nn2C)cc1	0%	-13%	-1.0%	-4
CC(C)(C)NS(=O)(=O)c1ccc(NC(=O)c2cc(-c3ccccc3)nc3ccccc23)cc1	-1%	-3%	0.1%	-4
Cc1cnc(NC(=O)c2cccc(S(=O)(=O)N3CCOCC3)c2)s1	/	18%	-1.4%	/
COc1ccccc1CNC(=O)CCC1N=C2c3ccccc3N=C(SCC(=O)NCC3CCCO3)N2C1=O (stereo not given)	0%	-12%	3.4%	/
CC(=O)Nc1ccc(OCCOc2ccc([N+](=O)[O-])cc2)cc1	-18%	12%	0.9%	7
CCCCNS(=O)(=O)c1cc2c3c(c1)CCN3C(=O)CC2	-5%	-10%	1.5%	/
Cc1c(C(=O)NCC(c2ccco2)N2CCCC2)sc2ccccc12 (stereo not given)	/	-3%	2.0%	/
Cc1ccc(Cn2c(SCC(C)C)nc3c2c(=O)[nH]c(=O)n3C)cc1	-7%	?	-2.7%	-1
CCOc1ccc(Nc2cc(C)nc3ccc(C)cc23)cc1	/	-5%	-0.9%	/
CCOC(=O)c1ccc(N2C(=O)C3CCOc4ccccc4C32)cc1 (stereo not given)	/	-2%	-3.1%	/
Cc1cc(C)c(NC(=O)Nc2ccccc2)c(C)n1	/	4%	1.4%	/
CC(C)=CCCC(C)N(C=O)C(C)CCC=C(C)C (stereo not given)	/	16%	-0.2%	/
CN(C)C(=O)CSCc1c(Cl)cccc1Cl	-15%	1%	-0.3%	2
Cc1ccccc1-c1nnc(SCC(=O)NCc2ccc3c(c2)OCO3)n1C	-1%	-9%	0.1%	13
CCOC(=O)C1(Cc2ccccc2C(F)(F)F)CCN(CCCn2cccn2)CC1	-1%	?	-1.9%	-5
CCOC(=O)/C=C1\CN(C(C)c2ccccc2)S(=O)(=O)c2ccccc21 (stereo not given)	0%	8%	6.3%	/
C=CCSc1nnc(-c2sc(-c3ccccc3)nc2C)n1C	-52%	-1%	0.9%	3
Clc1ccc(-c2noc(CN3CCCC3)n2)cc1	-46%	15%	0.6%	1
(more compounds)
SMILES	miR-21 reporter	Rango dissoc inh	Rango complex inh	GLA inh pH 4.5
CCCc1cc(=O)oc2c3c(cc(OCC(=O)N[C@@H](CSC)C(=O)O)c12)OC(C)(C)CC3	1%	-1%	-0.5%	/
CC(Nc1ncnc2sccc12)c1ccccc1 (stereo not given)	24%	-14%	?	/
N#Cc1cccc(NC(=O)N2CCC(c3nc4c(nnn4Cc4cccc(Cl)c4)c(=O)[nH]3)CC2)c1	-19%	7%	-1.0%	4
O=C1C(=C(O)c2ccccc2)C(=O)c2ccccc21	-19%	-3%	-4.5%	7
Cc1nnc(N/N=C/C(C)c2ccccc2)[nH]c1=O (stereo not given)	-2%	-5%	-0.8%	3
O=C(Nc1ccc(F)cc1)Nc1nnc(Cc2ccccc2F)s1	8%	-17%	0.4%	/
CC(C)C(NC(=O)c1ccco1)C(=O)NCC(c1ccco1)N1CCCCC1 (stereo not given)	-12%	8%	-1.8%	-6
CCCOc1ccc(C2C(C(=O)/C=C/c3ccco3)=C(O)C(=O)N2CCN2CCOCC2)cc1OC (stereo not given)	4%	?	?	-6
CS(=O)(=O)N1N=C(c2cccs2)CC1c1ccccc1 (stereo not given)	-10%	1%	-0.8%	0
Cc1onc(-c2c(F)cccc2Cl)c1C(=O)NNC(=O)C1CCN(Cc2cccc(F)c2)CC1	1%	-8%	-0.1%	9
O=C(N1CCOCC1)N1CCN(C(c2ccccc2)c2ccccc2)CC1	0%	1%	0.2%	4
O=S(=O)(/N=C(/c1ccccc1Cl)N1CCOCC1)c1ccccc1	-2%	4%	0.4%	-3
CCC(C)OC(=O)C1=C(C)NC(=O)CC1c1ccccc1OC (stereo not given)	0%	-4%	-2.1%	-3
CCCCNS(=O)(=O)c1ccc(NC(=O)c2c(-c3ccccc3Cl)noc2C)cc1	12%	-10%	5.3%	-8
O=C(NN1C(=O)NC2(CCCCC2)C1=O)c1ccc(Cl)c(Cl)c1	/	-1%	-1.1%	/
COC(=O)C1=C(C)NC(=O)NC1c1ccc(-c2ccc(Cl)cc2)o1 (stereo not given)	-9%	-21%	?	-18
Cn1c(=O)[nH]c(=O)c2c1nc(N1CCCCCC1)n2CCOc1ccccc1	0%	2%	4.8%	5
COC(=O)c1[nH]c2cc(OC)ccc2c1NC(=O)CN1CCN(c2cccc(C)c2)C(C)C1 (stereo not given)	21%	11%	4.7%	3
C=CCn1c(SCC(=O)Nc2c(C)n(C)n(-c3ccccc3)c2=O)nnc1-c1cccnc1	/	-11%	0.0%	/
CC1Sc2ccc(S(=O)(=O)N3CCC(C(=O)Nc4ccc(Cl)cc4)CC3)cc2NC1=O (stereo not given)	?	6%	-0.1%	/

The closing six records of the part above lead into the next.
SMILES	miR-21 reporter	Rango dissoc inh	Rango complex inh	GLA inh pH 4.5
O=C(NN1C(=O)NC2(CCCCC2)C1=O)c1ccc(Cl)c(Cl)c1	/	-1%	-1.1%	/
COC(=O)C1=C(C)NC(=O)NC1c1ccc(-c2ccc(Cl)cc2)o1 (stereo not given)	-9%	-21%	?	-18
Cn1c(=O)[nH]c(=O)c2c1nc(N1CCCCCC1)n2CCOc1ccccc1	0%	2%	4.8%	5
COC(=O)c1[nH]c2cc(OC)ccc2c1NC(=O)CN1CCN(c2cccc(C)c2)C(C)C1 (stereo not given)	21%	11%	4.7%	3
C=CCn1c(SCC(=O)Nc2c(C)n(C)n(-c3ccccc3)c2=O)nnc1-c1cccnc1	/	-11%	0.0%	/
CC1Sc2ccc(S(=O)(=O)N3CCC(C(=O)Nc4ccc(Cl)cc4)CC3)cc2NC1=O (stereo not given)	?	6%	-0.1%	/
COc1ccc(C2=Nc3ccccc3OC2)cc1	-46%	0%	?	?
Cn1c2ccccc2c(=O)c2c(=O)n(Cc3ccco3)c(COc3ccccc3)nc21	20%	-10%	-3.0%	-4
O=C1CCCC(O)=C1N=Nc1c(Cl)cc(Cl)cc1Cl	-11%	12%	6.9%	1
N/C(COc1ccc(F)cc1)=N\NC(=O)c1cccnc1Oc1ccccc1	-1%	2%	0.5%	0
Cc1ccc(C(=O)N2CC3(C(C)C)CN(C(=O)c4ccc(C)cc4)CC(C(C)C)(C2)C3=O)cc1	-5%	7%	-1.9%	/
O=C1CCC(C(=O)Nc2cccc3ccccc23)N1 (stereo not given)	-2%	24%	3.2%	-2
CCOC(=O)Cc1csc(NC(=O)c2ccc(F)cc2)n1	-1%	-5%	-3.1%	/
CC(C)c1ccc(/C=N/NC(=O)CCNC(=O)c2ccccc2)cc1	-51%	-1%	1.5%	/
O=C(COC(=O)c1ccc(S(=O)(=O)N2CCCC2)cc1)NCc1ccc(F)cc1	-5%	0%	-0.8%	5
CCSCC1COC(c2cccn2Cc2ccc(C)cc2)=N1 (stereo not given)	-15%	1%	-3.7%	-16
CCCCNCc1cc(Cl)c(OCCC)c(OCC)c1	0%	1%	6.5%	-6
Cn1c(SCC(=O)N2CCCc3ccccc32)nnc1-c1c[nH]c2ccccc12	-2%	-8%	0.0%	4
CCN(CC)c1ccc(NC(=O)CCCCCN2C(=O)c3ccccc3C2=O)cc1	5%	1%	-1.8%	-4
CCOC(=O)c1c(-c2ccccc2Cl)cn2ccccc12	-2%	-9%	2.6%	-8
CC(CCCC(C)(C)O)NCc1cn[nH]c1-c1ccc2c(c1)OCO2 (stereo not given)	0%	15%	4.1%	4
Cc1ccc2occ(C3NC(C(=O)O)CS3)c(=O)c2c1 (stereo not given)	-14%	8%	-1.1%	2
CC(C)C(=O)NCCSc1c[nH]c2ccccc12	-2%	1%	-0.9%	8
CCOC(=O)CC(=O)Nc1nc2ccccc2s1	-15%	-7%	-1.9%	7
Cc1cc([N+](=O)[O-])nn1CC(=O)N1N=C(C(F)F)CC1(O)C(F)F (stereo not given)	-2%	-4%	-1.2%	1

A portion of the library; the hit share may differ from the screen's.
